Assay outcomes: PubChem BioAssay, ICCB-Longwood Screening Facility, Harvard Medical School
GIV Gai3 FP – blocks GIV peptide binding to rat Galpha-i3; P08753; Galpha-i3/FITC-GIV peptide fluorescence polarization, 90 min; hits give low values; scaled: aluminum fluoride 0%, vehicle 100%; percent of control (FP), % (test concentration not listed); actives 0.42% (n = 210,000);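 active = replicate mean at 85% of control or lower, very high polarization wells dropped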;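 note: wells of about 15 µL received 100 nL stock; the first replicate is given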
Target sequence (P08753 whole entry, looked up): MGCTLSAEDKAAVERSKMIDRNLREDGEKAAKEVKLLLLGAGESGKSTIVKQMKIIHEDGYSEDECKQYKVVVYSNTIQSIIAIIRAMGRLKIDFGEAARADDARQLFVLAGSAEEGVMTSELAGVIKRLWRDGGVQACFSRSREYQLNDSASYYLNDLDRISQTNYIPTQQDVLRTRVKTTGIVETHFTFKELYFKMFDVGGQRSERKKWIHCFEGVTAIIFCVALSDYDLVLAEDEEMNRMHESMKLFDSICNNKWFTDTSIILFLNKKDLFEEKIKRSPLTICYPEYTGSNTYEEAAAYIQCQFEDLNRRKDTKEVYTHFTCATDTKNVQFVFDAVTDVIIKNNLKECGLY
The depositor's hits bear a star. This is a subset; rates above refer to the full screens.

SMILES	GIV Gai3 FP
Cc1nn(-c2nc3ccccc3n2C)c2c1C(c1ccc(Br)cc1)CC(=O)N2 (centres undefined)	106
Cc1nn(-c2ccccc2)c(-n2cccc2)c1CNC(=O)NCC1CCCO1 (centres undefined)	107
CN1C(=S)NC(C)(C)CC1(C)c1ccc(O)cc1O (centres undefined)	102
O=C(Nc1c2c(nn1-c1ccc([N+](=O)[O-])cc1)CS(=O)(=O)C2)c1cccc(Br)c1	105
O=C(CNS(=O)(=O)c1cc(-c2noc(C3CCC3)n2)cs1)Nc1ccc(Cl)cn1	103
Cc1cc2c(c(=O)o1)C(c1cc(Br)ccc1OC(=O)N1CCOCC1)C(C#N)=C(N)O2 (centres undefined)	112
Cc1ccccc1NS(=O)(=O)c1cc(-c2nc(C(C)(C)C)cs2)cs1	103
CC(C)Cn1c(=O)c2sccc2n2c(=O)n(CC(=O)NC(C)(C)C)nc12	103
COc1ccc(Br)cc1C1Nc2cccc3cccc(c23)N1	111
CCC(=O)N1c2ccccc2NC2=C(C(=O)CC(C)(C)C2)C1c1ccccc1 (centres undefined)	101
Cc1ccc2oc(SCCC(=O)Nc3cccc(N4CCCC4=O)c3)nc2n1	110
CC12CC(c3ccccc3O1)C(c1nc3ccccc3[nH]1)C(=O)N2 (centres undefined)	108
COC(=O)C1=NNC2(C)C(=O)N(c3ccc(C)cc3)C(=O)C12 (centres undefined)	104
O=C1C2C(C(=O)N1c1ccc(Br)cc1)N1CCCN1C2c1ccc(Cl)cc1 (centres undefined)	106
CCOc1ccc(NC(=O)c2sc3nc(C)nc(N4CCCCC4)c3c2C)cc1	112
COc1ccc(Cl)cc1NC(=O)CN(c1cc(Cl)ccc1OC)S(=O)(=O)c1ccc(OC)c(OC)c1	110
CC(=O)Nc1sc2c(c1-c1nc3ccccc3s1)CCN(Cc1ccccc1)C2	-3.2*
COc1ccc(-c2nnc(-c3ccccc3)o2)cc1S(=O)(=O)N(C)C	101
O=c1sc2c(s1)SC1CC=CC1S2 (centres undefined)	105
COc1cccc(NC(=O)c2nc(N3CCCC3)c3oc4ccccc4c3n2)c1	112
CC(=O)NC1=NC(=O)/C(=C/c2ccc(-c3cccc(Cl)c3C)o2)S1	114
Cc1c(C)n(-c2ccccc2)c2nc(C(=O)Nc3ccc(F)cc3F)nc(N3CCCC3)c12	103
CNc1cc(Nc2ccc(C)cc2)c2c3c(onc13)-c1ccccc1C2=O	108
Fc1ccc(F)c(-c2nc(-c3ccn4cnnc4c3)no2)c1	110

5 compounds drawn at random from those above, as already listed:
SMILES	GIV Gai3 FP
COc1ccc(Cl)cc1NC(=O)CN(c1cc(Cl)ccc1OC)S(=O)(=O)c1ccc(OC)c(OC)c1	110
CC(=O)Nc1sc2c(c1-c1nc3ccccc3s1)CCN(Cc1ccccc1)C2	-3.2*
COc1ccc(-c2nnc(-c3ccccc3)o2)cc1S(=O)(=O)N(C)C	101
CCOc1ccc(NC(=O)c2sc3nc(C)nc(N4CCCCC4)c3c2C)cc1	112
O=c1sc2c(s1)SC1CC=CC1S2 (centres undefined)	105

Additional compounds follow.
SMILES	GIV Gai3 FP
Cc1cc2c(cc1C)-c1nc3ccccc3cc1C2=Nc1ccccc1	103
COc1ccc(NC(=O)CSc2nccnc2Sc2ccc(C)cc2)cc1OC	104
CCOC(=O)c1ccccc1NC(=O)CSc1cc(N2CCCC2)ncn1	104
CS(=O)(=O)N1CCCN(C(=O)C2CCCO2)CC1 (centres undefined)	99
CCCn1cnnc1C1CCCN(Cc2cn[nH]c2-c2cccs2)C1 (centres undefined)	107
CN1C(=O)CSc2cnn(CC(=O)NC3CCCCC3)c(=O)c21	106
Cc1ccc(Nc2nc(N3CCOCC3)nc(C)c2[N+](=O)[O-])cc1Cl	104
O=C(c1cnc(N2CCOCC2)c2ccccc12)N1CCc2ccccc21	102
CCC(C)NC(=O)CC1COc2ccc(Cl)cc2NC1=O (centres undefined)	97
COc1ccc(/C=C2\N=C(c3ccc(Cl)cc3)N(c3ccccc3)C2=O)cc1OC	81*
O=C(Oc1ccc2cnccc2c1)c1cn(-c2cccc(Cl)c2)c(=O)c2ccccc12	100
CCCCc1ccc(C#N)c(SCc2c(C(=O)OCC)c3cc(OC(C)=O)c(Br)cc3n2C)n1	107
Cc1ccc2nc(NC(=O)CSc3nc(=O)[nH]c4c3CCC4)sc2c1	102
O=C(NCc1ccnc(N2CCSCC2)c1)Nc1ccc2c(c1)OCO2	97
COc1ccc(N2CCN(c3nccc4ccc(C(=O)Nc5cccc(Cl)c5)cc34)CC2)cc1	105
COc1ccc(NC(=O)c2c(NCc3cccc(OC)c3OC)sc3c2CCCCC3)cc1	110
O=C(NC1CCCC1)C1CC(=O)N(c2ccc3c(c2)CCN3C(=O)C2CCC2)C1 (centres undefined)	105
Cc1ccc(-c2noc(-c3ccccc3S(=O)(=O)NCCCN3CCCC3)n2)cc1	105
CC1(C)CC(=O)C2=C(C1)N=C1c3ccccc3C(=O)C1C2c1ccccc1Cl (centres undefined)	103
N#Cc1c(NC(=O)c2nn3c(c2Cl)NC(c2cccs2)CC3C(F)(F)F)sc2c1CCCC2 (centres undefined)	107
CCOc1ccc(-n2nnc3c(N4CCN(S(C)(=O)=O)CC4)ncnc32)cc1	102
COc1ccc(NC(=O)C2Oc3ccccc3NC2=O)cc1 (centres undefined)	100
CCCCNc1ncnc2c1c(-c1ccccc1)cn2-c1ccc(OC)cc1	108
CC(C)NC(=O)CCn1c(=O)c2ccccc2n2c(=O)n(Cc3cccc(Cl)c3)nc12	100
COc1ccc(NC(=O)c2cc(N3CCOCC3)nc3ccccc23)cc1Cl	111
COc1cccc(C2(O)CC(C(F)(F)F)=NN2C(=O)c2ccccc2[N+](=O)[O-])c1 (centres undefined)	109
CCCCCCCCCCCCCCCCCCCCCC(=O)OCC1OC2OC(C)(C)OC2C2OC(C)(C)OC12 (centres undefined)	112
CCOC(=O)c1ccc(NC(=O)CN2C=NS(=O)(=O)c3ccccc32)cc1	104
O=C(COC(=O)C(Cc1c[nH]c2ccccc12)NC(=O)c1ccco1)c1ccc(Br)cc1 (centres undefined)	108
Clc1ccccc1CNc1nc(-c2nnc(-c3ccccc3)o2)nc2ccccc12	101
CC(=O)Nc1ccc(S(=O)(=O)n2nnc3ccccc32)cc1	112
COC(=O)c1ccc(CN2CCCC2c2c(C)noc2C)cc1 (centres undefined)	107
CC1(C)CC(=O)C2=C(C1)N=C1c3ccccc3C(=O)C1C2c1ccc(OC(=O)c2ccc(Br)cc2)cc1 (centres undefined)	100
O=C(C1CCCN(S(=O)(=O)Cc2ccc(Cl)cc2)C1)N1CCN(C/C=C/c2ccccc2)CC1 (centres undefined)	99
COc1ccc(C2CC(=O)C3=C(C2)Nc2ccccc2NC3c2ccc(NC(C)=O)cc2)cc1OC (centres undefined)	105
O=C1c2[nH]nc(-c3ccccc3)c2C(c2ccc([N+](=O)[O-])cc2)N1c1ccccc1 (centres undefined)	111
Cc1ccc(NC(=O)Nc2ccc(CCc3nc4ccccc4n3C)cc2)cc1C	102
O=C(CN1C(=O)c2ccccc2C1=O)OCCN(C1=NS(=O)(=O)c2ccccc21)c1ccccc1Cl	123
O=C(NCc1ccccc1Cl)C1Oc2ccccc2NC1=O (centres undefined)	105
Cc1nc(-c2csc(S(=O)(=O)N3CCCC3)c2)no1	105
CCS(=O)CCSc1nc(-c2ccc(OC)cc2)cc(-c2ccccc2)c1C#N (centres undefined)	116
COc1ccc(/C=C2\CN(C)CC3=C2OC(N)=C(C#N)C3c2ccc(OC)cc2)cc1 (centres undefined)	119
CCOc1ccc2c(c1)-c1c(ssc1=Nc1cccc(NC(C)=O)c1)C(C)(C)N2	110
Cc1ccc(N2C(=S)N=C(Nc3cccc(C(F)(F)F)c3)C23CCC(C(C)(C)C)CC3)cc1 (centres undefined)	108
CC(Oc1cccc2ccccc12)C(=O)NN1S(=O)(=O)c2ccccc2S1(=O)=O (centres undefined)	106
Cc1c(Br)c([N+](=O)[O-])nn1CC(=O)Nc1c(C)n(C)n(-c2ccccc2)c1=O	105
Cc1cc(C)cc(S(=O)(=O)Nc2ccccc2-c2ccc3ccccc3n2)c1	104
Cc1c(CCNC(=O)c2ccc(Cl)cc2)sc2nc(-c3ccc(F)cc3)nn12	101
Cc1nccn1Cc1noc(-c2ccc3c(c2)OCO3)n1	99
C=CCN1/C(=C\C=C\c2n(CC=C)c3cc(Cl)c(Cl)cc3[n+]2CCCCCCCC)N(CCCCCCCC)c2cc(Cl)c(Cl)cc21	-62*
COc1cc(/C=C2/N=C(c3ccc(Cl)cc3)OC2=O)cc(Br)c1OC(C)=O	105
CCOC(=O)N1CCC(Nc2ncnc3c2c(-c2ccccc2)cn3-c2cccc(C)c2)CC1	109
CCCCCCCCCC(=O)Oc1ccc(-c2ncc(CCCCCCCC)cn2)cc1	101
CCOc1ccc(-c2noc(Cc3nc(-c4ccccc4)cs3)n2)cc1	102
COc1ccccc1CNC(=O)c1ccc2c(c1)[nH]c(=S)n1c3ccccc3nc21	104
Clc1ccc(-c2noc(Cc3nc(-c4ccc5c(c4)OCO5)cs3)n2)cc1	111
CC1(C)CC(=O)C2=C(C1)OC1=C(C(=O)CC(C)(C)C1)C2c1ccc(OCc2ccc(F)cc2)cc1	114
CC(=O)N1c2ccccc2CCc2ccc(N)cc21	122
Cc1c(C(=O)N2CCN(c3cccc(Cl)c3)CC2)sc2ncn(CC(=O)Nc3cccc(C(F)(F)F)c3)c(=O)c12	103
COc1cccc(NC(=O)C2CCN(S(=O)(=O)c3ccc4c(c3)CCCN4C(C)=O)CC2)c1	102

Among those listed so far, these have bromine:
SMILES	GIV Gai3 FP
Cc1nn(-c2nc3ccccc3n2C)c2c1C(c1ccc(Br)cc1)CC(=O)N2 (centres undefined)	106
O=C(Nc1c2c(nn1-c1ccc([N+](=O)[O-])cc1)CS(=O)(=O)C2)c1cccc(Br)c1	105
Cc1cc2c(c(=O)o1)C(c1cc(Br)ccc1OC(=O)N1CCOCC1)C(C#N)=C(N)O2 (centres undefined)	112
COc1ccc(Br)cc1C1Nc2cccc3cccc(c23)N1	111
O=C1C2C(C(=O)N1c1ccc(Br)cc1)N1CCCN1C2c1ccc(Cl)cc1 (centres undefined)	106
CCCCc1ccc(C#N)c(SCc2c(C(=O)OCC)c3cc(OC(C)=O)c(Br)cc3n2C)n1	107
O=C(COC(=O)C(Cc1c[nH]c2ccccc12)NC(=O)c1ccco1)c1ccc(Br)cc1 (centres undefined)	108
CC1(C)CC(=O)C2=C(C1)N=C1c3ccccc3C(=O)C1C2c1ccc(OC(=O)c2ccc(Br)cc2)cc1 (centres undefined)	100
Cc1c(Br)c([N+](=O)[O-])nn1CC(=O)Nc1c(C)n(C)n(-c2ccccc2)c1=O	105
COc1cc(/C=C2/N=C(c3ccc(Cl)cc3)OC2=O)cc(Br)c1OC(C)=O	105

The listing continues.
SMILES	GIV Gai3 FP
C=CCn1c(SCC(=O)c2ccc(Cl)cc2)nc2cc(C(=O)N3CCC(C(N)=O)CC3)ccc2c1=O	115
COCc1cc(C)nc2sc3c(=O)n(-c4ccc(N=Nc5ccccc5)cc4)nnc3c12	111
CSc1c(CC(C)C)cnc2c1c(=O)n(C)c(=O)n2C	107
O=c1cc(CN(Cc2ccccc2)Cc2ccccc2)nc2scc(-c3ccccc3)n12	101
COc1ccc(C2Nc3ccc4ncccc4c3C3=C2C(=O)CC(C)(C)C3)cc1 (centres undefined)	104
COc1ccccc1C(O)(C(=O)NNc1ccc(Br)cc1)c1ccccc1OC	107
CCOc1ccc(S(=O)(=O)Nc2cc(C(F)(F)F)cc(C(F)(F)F)c2)c2cccnc12	115
CC(=O)Nc1ccc(N2CCN(C(c3ccccc3)c3ccc(Cl)cc3)CC2)c(C(=O)O)c1 (centres undefined)	111
O=C(c1cccc(Cl)c1)N1N=C(C(F)(F)F)CC1(O)c1ccc(Cl)cc1 (centres undefined)	122
CCOC(=O)c1[nH]c(C)c(CCC(=O)N2CCCC(C(=O)N3CCN(c4ccccn4)CC3)C2)c1C (centres undefined)	103
CCc1ccc(NC(=O)c2ccc(Oc3ccnc(-c4cccc(C)c4)n3)cc2)cc1	101
CCn1c(CCc2ccc(NS(=O)(=O)c3cc(C)ccc3C)cc2)nc2ccccc21	116
Cc1ccnc(NC(=O)C2CCN(S(=O)(=O)c3c(C)nn(CC(=O)N4CCc5ccccc54)c3C)CC2)c1	103
O=C(c1ccc(Cl)cc1)N1CCc2cc(CNS(=O)(=O)c3ccc(F)cc3)ccc21	105
Oc1ccc(-c2nc(-c3ccc4sc5ccccc5c4c3)c(-c3ccccc3)[nH]2)cc1	129
CCC1C(=O)N=C(SCC(=O)NCc2ccco2)NC1=O (centres undefined)	108
O=C1/C(=C/c2ccc(-c3ccc([N+](=O)[O-])cc3)o2)C=C(c2ccccc2)N1c1ccc(Cl)cc1	115
Cc1cccc(N(CCOC(=O)Cn2cnc3ccccc3c2=O)C2=NS(=O)(=O)c3ccccc32)c1	118
O=C(CCc1nc(-c2ccc(S(=O)(=O)N3CCOCC3)cc2)no1)NC1CC1	106
Cc1cc2c(cc1S(=O)(=O)N1CCCC1C(=O)NC1CCCC1)OCC(=O)N2 (centres undefined)	98
Cc1sc(C)c(S(=O)(=O)N2CCN(c3ccc(F)cc3)CC2)c1-c1cc(C(F)(F)F)on1	107
O=C(Cn1c(=O)n2nc(-c3ccc(F)cc3)nc2c2ccccc21)c1ccccc1Cl	101
CC(=O)c1cccc(N2C(=O)C3C(c4ccccc4)C=CC(c4ccccc4)C3C2=O)c1 (centres undefined)	115
CCc1cccc(NC(=O)c2nc(CS(=O)(=O)c3ccc(Cl)cc3)no2)c1	107
O=C(Oc1cccc(NC2=NS(=O)(=O)c3ccccc32)c1)c1ccc(Br)cc1	107
CC(C)(C)c1ccc(C2Nc3cccc4cccc(c34)N2)cc1	111

A second format for two compounds above.
SMILES | GIV Gai3 FP
CCc1cccc(NC(=O)c2nc(CS(=O)(=O)c3ccc(Cl)cc3)no2)c1 | 107
O=C(Oc1cccc(NC2=NS(=O)(=O)c3ccccc32)c1)c1ccc(Br)cc1 | 107
